ALR H2O2 inh – inhibitors of human ALR sulfhydryl oxidase, primary screen, biochemical, H2O2 detection, HRP-luminol luminescence, single point; 3.8% of 290,000 active; purified ALR, DTT oxidation; inhibition, % (concentration not given with the values); AID 485317, 2010; FAD-linked sulfhydryl oxidase ALR (Homo sapiens), P55789;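 active = mean and each replicate at 75% or more; inconclusive = only one of the two met; inactive = neither met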;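 also: stock transfer was 7.5 nL into about 7.5 µL; 0% = neutral wells and 100% = wells with inactivated enzyme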
Target sequence (P55789 whole entry, looked up): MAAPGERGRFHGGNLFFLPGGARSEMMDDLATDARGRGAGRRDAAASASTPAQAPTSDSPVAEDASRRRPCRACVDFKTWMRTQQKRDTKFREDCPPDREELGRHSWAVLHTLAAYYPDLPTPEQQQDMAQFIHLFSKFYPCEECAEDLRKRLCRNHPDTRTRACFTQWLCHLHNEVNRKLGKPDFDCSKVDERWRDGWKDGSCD
Beta cell apopt – inhibitors of cytokine-induced beta cell apoptosis, primary screen, luminescence; INS-1E cytokine-induced death, ATP luminescence, 48 h; percent of positive-control rescue, neutral wells zero; protection from apoptosis, % (test concentration not listed); 0.8% of 300,000 active; AID 435005, 2010;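 active = all replicates at 75% or more, or half of them and the mean; inconclusive = half reach 75% but not the mean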;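 also: 0% = cytokine-treated negative control wells and 100% = positive control rescue; higher means more ATP so stronger rescue from cytokine killing; wells of about 40 µL received 100 nL stock; the first replicate is given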
Calb FLC – C. albicans growth inhibition with fluconazole, primary screen, CaCi-2 strain, Alamar Blue fluorescence. growth inhibition, % (concentration not given with the values). C. albicans CaCi-2 (fluconazole-resistant clinical isolate) + fluconazole, 48 h. 0.57% of 300,000 active;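 active = most replicates above 75%; inconclusive = exactly half above 75%; inactive = most below 75%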;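 also: all wells also contain fluconazole at 8 µg/ml as a sub-toxic cotreatment; 0% = median of DMSO wells and 100% = median of geldanamycin control wells; wells of about 8 µL received 7.5 nL stock; the first replicate is given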
T cruzi inh – inhibitors of intracellular T. cruzi growth, primary screen, luminescence, NIH3T3 host cells. T. cruzi beta-gal in NIH3T3, 90 h. inhibition, % (test concentration not listed). 1.4% of 300,000 active;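 active = mean inhibition across valid replicates above about 55%, limit read from the data; inconclusive = mean below that limit but half or more replicates reach it; inactive = mean below it, under half of replicates reach it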;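 also: signal also drops with host cell toxicity which is not excluded here; 0% = plate median of DMSO wells and 100% = zero luminescence signal; higher percent means less beta-gal luminescence so fewer parasites; stock transfer was 50 nL into about 50 µL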
FGF22 binding – binders of human FGF22 protein, primary screen, FGF22 synaptogenesis inhibitor project, biophysical, thermal shift, single point; Fibroblast growth factor 22 (Homo sapiens), Q9HCT0; recombinant FGF22 thermal shift, SYPRO orange fluorescence; percent of sucrose octasulfate shift, DMSO zero; calls only at 9.99 µM; 1.5% of 340,000 active;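 active = melting point raised past a set limit in the mean and every replicate; inconclusive = no clear call; three in four hits are not shown here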
Target sequence (Q9HCT0 whole entry, looked up): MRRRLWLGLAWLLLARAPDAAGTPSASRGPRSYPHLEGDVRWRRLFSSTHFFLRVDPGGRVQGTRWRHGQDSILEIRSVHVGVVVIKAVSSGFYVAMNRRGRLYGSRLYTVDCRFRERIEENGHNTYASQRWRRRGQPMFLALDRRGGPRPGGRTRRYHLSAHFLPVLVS
MLL AF4-AF9 inh – inhibitors of AF4 peptide binding to AF9, primary screen, biochemical, AlphaScreen, biotin-AF4 peptide, FLAG-AF9, single point. inhibition, % at 10 µM. 0.47% of 350,000 active. AID 651704, 2012;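 active = every replicate reaching a set inhibition limit, whatever the replicate mean, cut at about 25% in these data; inconclusive = mean inhibition reaches that limit but some replicates miss it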;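 also: 0% = plate neutral control median and 100% = total signal loss; the record names both 10 and 1 µM as test concentration; the first replicate is given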
Target sequence (P42568 whole entry, looked up): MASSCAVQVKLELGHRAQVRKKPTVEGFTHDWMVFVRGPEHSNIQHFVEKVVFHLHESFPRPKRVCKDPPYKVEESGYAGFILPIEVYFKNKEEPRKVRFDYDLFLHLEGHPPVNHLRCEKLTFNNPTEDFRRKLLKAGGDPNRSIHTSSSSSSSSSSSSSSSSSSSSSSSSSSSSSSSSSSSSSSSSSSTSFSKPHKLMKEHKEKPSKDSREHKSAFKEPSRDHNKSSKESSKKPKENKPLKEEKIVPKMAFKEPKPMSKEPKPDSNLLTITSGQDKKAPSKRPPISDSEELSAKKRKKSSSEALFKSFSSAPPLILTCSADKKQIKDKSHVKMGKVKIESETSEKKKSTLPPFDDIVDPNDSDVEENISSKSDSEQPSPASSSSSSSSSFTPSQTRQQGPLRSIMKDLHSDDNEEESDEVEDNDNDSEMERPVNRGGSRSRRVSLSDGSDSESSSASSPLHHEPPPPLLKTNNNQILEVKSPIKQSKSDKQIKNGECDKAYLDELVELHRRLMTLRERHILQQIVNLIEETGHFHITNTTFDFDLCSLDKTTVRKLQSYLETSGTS
Ecoli rRNA inh – reduced GFP signal of wild-type E. coli, primary screen, bacterial rRNA inhibitor project, GFP/RFP fluorescence, OD600, single point. GFP signal change (wild-type ribosome), % (concentration not given with the values). 1.6% of 350,000 active. E. coli WT GFP vs humanized-ribosome RFP mutants, 24 h; active compounds read low; DMSO median 0, no signal -100;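 active = significant combined selectivity score with lowered wild-type GFP, culture density cut under 30%, mutant RFP and density less affected; inactive = any of these conditions unmet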; also: one replicate is shown; some compounds called inactive have numbers as strong as hits
RanGTP-Impb inh – inhibitors of RanGTP-importin-beta interaction, primary screen, biochemical, FRET, CFP-Ran, YFP-importin-beta, homogeneous; inhibition, % (no concentration beside the values); cell-free CFP-Ran/YFP-importin-beta FRET ratio; 1.1% of 300,000 active; Ran GTPase (GTP-bound) - importin-beta complex;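 active = most replicates above 15%; inconclusive = exactly half above 15%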;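 also: 0% = DMSO wells and 100% = Ran loaded with GDP instead of GTP; wells of about 40 µL received 100 nL stock; the first replicate is given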
Ecoli rRNA inh OD600 – also measured in Ecoli rRNA inh; calls as there; OD600 change, %; measured here: OD600 growth;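 optical density of the mix in the first replicate; 0 = DMSO median and -100 = no signal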
Ecoli rRNA inh RFP – second read-out of Ecoli rRNA inh, no call of its own (marks repeat the call); RFP signal change, %; measured here: RFP humanized mutant strains;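 first replicate; 0 = DMSO median and -100 = no signal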
An asterisk follows results filed as active; i = inactive; ? = inconclusive; . = no result given; & = joins results of further samples. This is a subset. The share of hits here may be higher or lower than overall.

Sample of the layout:
SMILES | ALR H2O2 inh | Beta cell apopt | Calb FLC | T cruzi inh | FGF22 binding | MLL AF4-AF9 inh | Ecoli rRNA inh | Ecoli rRNA inh OD600 | Ecoli rRNA inh RFP | RanGTP-Impb inh
CC(=O)NC1C(=O)N(CCc2ccccc2)c2ccccc21 (stereo not given) | 17 | -8 | -8 | 9 | . | . | . | . | . | 0.0
Cc1ccc2nc(-c3cccnc3)cc(C(=O)N3CCN(c4ccc([N+](=O)[O-])cc4)CC3)c2c1 | . | 13 | 2 | 46 | . | 3.7 | 12 | 4 | 3.9 | 5.5
COc1ccc(OC)c(/C=N/NC(=O)C(O)c2ccccc2)c1 (stereo not given) | -10 | -10 | 8 | -13 | i | -4.5 | -7 | -8 | -1.0 | 1.4
Cc1ccc(C)c(N2CCN(C(=O)COc3cc(=O)n(C)c4ccccc34)CC2)c1 | -3 | 2 | 20 | 7 | . | . | . | . | . | ?

This part in full, from the start:
SMILES | ALR H2O2 inh | Beta cell apopt | Calb FLC | T cruzi inh | FGF22 binding | MLL AF4-AF9 inh | Ecoli rRNA inh | Ecoli rRNA inh OD600 | Ecoli rRNA inh RFP | RanGTP-Impb inh
CC(=O)NC1C(=O)N(CCc2ccccc2)c2ccccc21 (stereo not given) | 17 | -8 | -8 | 9 | . | . | . | . | . | 0.0
Cc1ccc2nc(-c3cccnc3)cc(C(=O)N3CCN(c4ccc([N+](=O)[O-])cc4)CC3)c2c1 | . | 13 | 2 | 46 | . | 3.7 | 12 | 4 | 3.9 | 5.5
COc1ccc(OC)c(/C=N/NC(=O)C(O)c2ccccc2)c1 (stereo not given) | -10 | -10 | 8 | -13 | i | -4.5 | -7 | -8 | -1.0 | 1.4
Cc1ccc(C)c(N2CCN(C(=O)COc3cc(=O)n(C)c4ccccc34)CC2)c1 | -3 | 2 | 20 | 7 | . | . | . | . | . | ?
CCOC(=O)c1c(-c2ccccc2)oc2ccc(O)cc12 | -2 | . | 2 | -13 | i | -0.9 | -48 | -62 | -10 | 2.5
CC(C)CNS(=O)(=O)c1ccc(C(=O)Nc2ccc3c(c2)OCCO3)cc1 | -10 | 2 | -3 | 4 | . | . | . | . | . | -1.7
CN(c1c(C#N)c(C(F)(F)F)nn1C)N(S(C)(=O)=O)S(C)(=O)=O | 2 | -14 | 6 | -21 | i | -1.0 | 19 | 20 | 1.9 | 1.4
CNC(=O)COC(=O)c1ccc([N+](=O)[O-])cc1Cl | -46 | -1 | -13 | -16 | i | 0.8 | 7 | 7 | -2.6 | -2.3
CC1=C(C(=O)Nc2ccccc2)C(c2ccccn2)n2ncnc2N1 (stereo not given) | 5 | -4 | -7 | -23 | . | . | . | . | . | 1.4
CCOC(=O)c1ccc(NC(=O)C2C3C=CC(C3)C2C(=O)O)cc1 (stereo not given) | 16 | -9 | 1 | -4 | . | . | . | . | . | -2.0
O=C(CSc1nc2ccccc2c(=O)[nH]1)c1ccc(O)c(O)c1 | 99* | . | 3 | -27 | i | 4.3 | -11 | -18 | 8.1 | 12
CCO[C@@H]1OC(C(=O)N2CCOCC2)=C[C@H](C(C)(C)C)[C@H]1CCCO | -7 | -6 | 0 | -8 | . | . | . | . | . | 0.4
CCn1c(SCC#N)nc2c(c1=O)C1(CCCC1)Cc1ccccc1-2 | -9 | 9 | -4 | 41 | . | . | . | . | . | .
C#CCNC(=O)C1=C[C@H](c2ccc(C(F)(F)F)cc2)[C@@H](CCCO)[C@H](OCC)O1 | -6 | -3 | 2 | -6 | i | -6.4&-2.1 | 0 | -2 | 9.1 | 5.1
Cc1noc(C)c1COC(=O)CCCc1nc2ccccc2s1 | -3 | -5 | 1 | 0 | . | . | . | . | . | -1.2
CC(C)CN(C(=O)COC(=O)CSc1ccccc1)c1c(N)n(Cc2ccccc2)c(=O)[nH]c1=O | 6 | -6 | 4 | 2 | i | 0.0 | 15 | 12 | -0.5 | -0.8
Cc1nn(C)c2c(=O)c(=O)c2n(C)[nH]1 | 3 | . | -4 | 4 | i | 2.8 | 3 | -9 | -2.5 | 8.1
COc1cccc(/C=N/NC(=O)CN(C)S(=O)(=O)c2ccccc2)c1OC | . | 0 | . | . | i | 2.0 | -1 | -4 | 1.6 | .
O=C1CC(N2CCOCC2)C(=O)N1c1ccccc1Cl (stereo not given) | -2 | -2 | -7 | -13 | . | . | . | . | . | -2.0
CCOC(=O)c1c(C)[nH]c(C)c1C(=O)COC(=O)/C=C/c1cccc(C(F)(F)F)c1 | 1 | -7 | 7 | 2 | i | 6.3 | -16 | -38 | 17 | 6.8

Just ALR H2O2 inh and T cruzi inh (2 entries from above):
| SMILES | ALR H2O2 inh | T cruzi inh |
| --- | --- | --- |
| C#CCNC(=O)C1=C[C@H](c2ccc(C(F)(F)F)cc2)[C@@H](CCCO)[C@H](OCC)O1 | -6 | -6 |
| Cc1noc(C)c1COC(=O)CCCc1nc2ccccc2s1 | -3 | 0 |

More results
SMILES | ALR H2O2 inh | Beta cell apopt | Calb FLC | T cruzi inh | FGF22 binding | MLL AF4-AF9 inh | Ecoli rRNA inh | Ecoli rRNA inh OD600 | Ecoli rRNA inh RFP | RanGTP-Impb inh
CSC1=NCCN1S(=O)(=O)c1ccc(C)cc1 | -2 | -10 | -4 | -5 | i | 0.0 | . | . | . | 4.8
CCOC(=O)NN1C(=O)c2ccccc2NC1(C)C | 3 | -6 | 12 | -8 | i | -1.3 | 20 | 16 | 1.0 | 2.3
O=C(NC1CCCCC1)c1cccc2c1C(=O)c1ccc(N3CCC(Cc4ccccc4)CC3)cc1S2(=O)=O | . | 4 | . | . | i | -1.5 | 14 | 14 | -4.0 | .
CC(=O)Nc1ccc(Oc2nc(-c3cccnc3)nc3sc4c(c23)CCCC4)cc1 | -3 | -5 | -7 | -7 | . | . | . | . | . | ?
CCc1nn2c(=O)cc(COc3cccc(NC(=O)c4ccco4)c3)nc2s1 | -1 | 1 | -3 | 13 | i | -1.3 | 3 | 9 | 0.3 | 0.7
CCc1nonc1NC(=O)c1oc2cc(C)c(Cl)cc2c1C | -9 | . | -15 | -4 | i | -2.6 | 3 | 6 | -5.2 | -3.0
CCC(=O)N=c1sc2c(OC)ccc(OC)c2n1C | -3 | 8 | -5 | 11 | i | 5.9 | 3 | 8 | -0.6 | -1.2
Cc1cccc(N2CC(C(=O)Nc3ccc(N4CCOCC4)cc3)CC2=O)c1C (stereo not given) | 19 | 11 | . | . | i | -0.9 | 6 | 7 | -0.3 | .
O=C1NC(c2cccc([N+](=O)[O-])c2)=CCN1c1ccccc1O | -11 | -4 | -4 | -4 | i | -13 | 2 | 10 | 2.0 | -1.2
CCCC1CC(C)(C(=O)CSc2n[nH]c(-c3ccccc3)n2)OC1=O (stereo not given) | 7 | -2 | -7 | -2 | . | . | . | . | . | -2.8
CCOC(=O)C1=C(C)NC(SC)=NC1c1ccc(OC)cc1 (stereo not given) | -2 | -7 | 4 | 0 | . | . | . | . | . | 1.3
CCOC(=O)C(O)C1CCc2c([nH]c3ccc(C)cc23)C1=O (stereo not given) | -3 | -2 | 40 | 6 | i | . | -20 | -12 | 2.7 | 5.4
O=c1cc(-c2ccccc2)nc2nc(SCc3ccccc3)[nH]n12 | . | -5 | -30 | -5 | . | . | . | . | . | 1.4
Cc1cc2nc(SCCN3CCCC3)[nH]c2cc1C | 10 | -2 | 14 | 7 | . | . | . | . | . | ?
Cc1occc1C(=O)Nc1cccc(C(F)(F)F)c1 | . | -3 | 8 | -8 | . | . | . | . | . | 2.5
CN(C)S(=O)(=O)c1ccc(N2CCCC2)c(C(=O)NCC2COc3ccccc3O2)c1 (stereo not given) | 0 | . | 3 | 2 | i | -6.9 | -8 | -17 | 0.1 | 3.3
CCn1c(CC(=O)Nc2ccccc2C)nnc1SCC(=O)Nc1nncs1 | -2 | -8 | 3 | -11 | i | -16 | -3 | 17 | -3.1 | -1.3
COC(=O)Nc1ncc(CN2CCCCC2)s1 | -2 | -12 | -4 | -3 | . | . | . | . | . | 2.8
O=C(c1ccc2snnc2c1)N1CCN(c2ccccc2)CC1 | 20 | -3 | 15 | -13 | . | . | . | . | . | 0.2
O=C1NCCN1C(=O)C12CC3CC(CC(C3)C1)C2 | -6 | 1 | 7 | -5 | . | . | . | . | . | 1.0
O=C(N/C(=C/c1ccccc1Cl)C(=O)N1CCCC1)c1ccccc1 | 1 | -5 | 11 | -12 | i | 0.3 | 1 | -7 | -1.0 | -1.8
c1ccc(-c2nc(C3CCCCC3)c3sccc3n2)cc1 | -5 | 5 | 2 | -21 | i | -0.7 | 4 | 3 | -2.7 | -0.6
CCOC(=O)c1ccc([N+](=O)[O-])c(CS(=O)(=O)c2ccc(Cl)cc2)c1 | -14 | 1 | -6 | 35 | i | 3.4 | -3 | -5 | 3.0 | 0.8
COc1c(O)cnn(-c2ccccc2)c1=O | -5 | -11 | -12 | -3 | i | 2.1 | 0 | 3 | -2.7 | -0.3
NC(=O)C1CCN(C(=O)c2cc(-c3ccccc3Cl)nc3ccccc23)CC1 | -6 | -1 | . | . | i | 0.5 | . | . | . | .
COc1ccc(CCC(=O)Nc2ccc(S(=O)(=O)Nc3ncccn3)cc2)cc1 | -14 | -4 | . | . | i | -2.8 | . | . | . | .
CCOc1ccc(N(CC(=O)NC2CCCC2)C(=O)c2ccc(C)s2)cc1 | 3 | 1 | -2 | 24 | i | 2.1 | -5 | -11 | 1.8 | 1.8
O=C(O)C1CCC(=O)N(C2CCCCC2)C1c1ccccc1Cl (stereo not given) | -22 | 0 | -1 | -1 | i | -20 | 6 | 1 | 0.5 | 1.3
COc1ccc(OC)c(CCNC(=O)CCc2nnc3ccc(N4CCCCC4)nn23)c1 | -4 | . | 2 | -9 | i | 4.6 | -3 | -12 | 1.9 | 0.1
COc1ccc(CC2(CO)CCN(Cc3cccc(OC)c3OC)CC2)cc1 | -9 | 1 | -1 | 6 | i | 3.1 | 2 | 3 | -0.8 | -1.8
COC(=O)c1cc(C(=O)OC)cc(-n2c(C)cc(C(=O)CC#N)c2C)c1 | 26 | 1 | -11 | -8 | . | . | . | . | . | -2.2
COc1cc(/C=N/NC(=O)CCn2cnc(-c3ccccc3)c2-c2ccccc2)ccc1O | 65 | -15 | 16 | 4 | i | 9.8 | -26 | -32 | -2.0 | 1.4
CN1CCN(C(=O)c2ccc(N3CCCC3=O)cc2)CC1 | -25 | -7 | -13 | -14 | . | . | . | . | . | 2.2
CCOC(=O)NC1(C(F)(F)F)NC(=O)N(C2CCCCC2)C1=O (stereo not given) | -6 | 5 | 3 | -31 | . | . | . | . | . | -4.8
CN(C)S(=O)(=O)c1cccc(NC(=O)CSc2nnnn2-c2ccccc2)c1 | . | 2 | -9 | -15 | i | 0.9 | -18 | -11 | 1.5 | -0.3
